Bioassay records deposited in PubChem by National Center for Advancing Translational Sciences (NCATS).
PINK1 modulator: changes PINK1 expression. Potency, µM (highest dose often 76.6 µM), for inactives: at the highest dose activation (PINK1 increase), hits mostly activators. PINK1 immunofluorescence, high-content cytometry, 24 h. 0.2% of 410,000 active. AID 624263; active = well fitted activation curve with a large enough effect; inconclusive = small, poorly fitted or top-dose-only effect; inactive = flat fitted curve, though single readings scatter; cell line not stated here;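 note: potency is the fitted concentration of half-maximal effect; % of control where 0% means no effect; nearly all actives have a fitted effect of over 65% in size; a mitochondrial uncoupler was the plate control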
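Stable cell line, 250 cells/well, 12 h attachment; compounds pinned at 5 concentrations, 24 h; CCCP control. Fixed with nuclear dye, primary antibodies 12 h at 10 degrees C, secondary plus cell stain; laser-scanning cytometer read.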
CtBP-E1A inh: blocks the CtBP interaction with E1A. 0.49% of 340,000 active. AlphaScreen GST-E1A/His-CtBP binding, 1536-well; stronger effect = lower value; control for the full effect not named in the record. activity change, % (test concentration not listed); in the data active means activity change below about -65%; inconclusive means about -30% to -65%; inactive means above about -30%; note: % is set by controls: 0 for no effect and ±100 for the full control effect; compound concentration not given in the record
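AlphaScreen with 125 nM GST-E1A and 125 nM His-CtBP (5X stocks) in Tris pH 8.0, 300 mM NaCl, BSA, Tween 20, TCEP. Compounds preincubated 2 h at 37 deg C, then glutathione donor/nickel acceptor beads added for 1 h at 37 deg C in dark.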
Six1-Eya2 blk: Six1/Eya2 interaction inhibition. activity change, % (test concentration not listed). Q15475+O00167. AlphaScreen GST-Six1/His-Eya2 binding, biochemical; stronger effect = lower value; control for the full effect not named in the record. AID 651725. 0.56% of 360,000 active; in the data active = activity change below about -65%; inconclusive = about -30% to -65%; inactive = above about -30%; note: % is set by controls: 0 for no effect and ±100 for the full control effect; compound concentration not given in the record
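AlphaScreen with GST-Six1 and His-Eya2 (5X mix: 250 nM and 500 nM), glutathione donor and nickel acceptor beads; buffer 50 mM Tris pH 8.0, 300 mM NaCl, 1 mM TCEP; 1 h at 37 C in the dark.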
TRPML1 ag: human mucolipin-1 channel agonism; Q9GZU1; TRPML1-expressing cells, Ca2+ dye fluorescence, FDSS; host cell line not named in the record; reference of the full effect not given here; activation, % (test concentration not listed); 0.12% of 410,000 active; in the data active = activation above about 50%; inconclusive = about 30% to 50%; inactive = below about 30%; note: 0% is about no effect; the text of the record puts the active cut at 80%
Target sequence (Q9GZU1 whole entry, looked up): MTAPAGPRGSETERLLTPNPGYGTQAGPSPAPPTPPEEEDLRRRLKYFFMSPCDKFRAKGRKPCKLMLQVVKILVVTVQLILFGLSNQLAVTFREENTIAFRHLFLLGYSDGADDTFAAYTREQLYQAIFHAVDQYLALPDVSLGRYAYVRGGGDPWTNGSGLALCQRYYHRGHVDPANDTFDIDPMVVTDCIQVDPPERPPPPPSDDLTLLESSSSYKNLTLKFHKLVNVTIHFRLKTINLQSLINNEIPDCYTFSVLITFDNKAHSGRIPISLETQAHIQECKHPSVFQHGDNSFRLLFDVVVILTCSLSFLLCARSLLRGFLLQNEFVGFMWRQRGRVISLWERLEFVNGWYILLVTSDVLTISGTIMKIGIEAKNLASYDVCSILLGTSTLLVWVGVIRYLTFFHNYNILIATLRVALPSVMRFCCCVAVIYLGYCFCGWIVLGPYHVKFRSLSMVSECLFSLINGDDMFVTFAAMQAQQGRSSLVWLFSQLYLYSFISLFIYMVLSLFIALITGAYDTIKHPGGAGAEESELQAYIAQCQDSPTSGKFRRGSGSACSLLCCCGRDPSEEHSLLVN
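Agonist activity was taken from a 110 s kinetic Ca2+ dye read on the FDSS after pinning compounds onto TRPML1-DL cells. The cells were seeded at 1,500/well with Tet inducer, incubated about 16 h, then dye-loaded at room temperature.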
D2 ag: agonists of human D2 dopamine receptor (beta-arrestin). P14416. DiscoveRx PathHunter D2 beta-arrestin, luminescence, 90 min; 100% = 57 uM dopamine signal. activation, % (no concentration beside the values). 0.084% of 360,000 active. AID 624465; in the data active = activation above about 40%; inconclusive = about 15% to 40%; inactive = below about 15%; note: compound concentration not given in the record; the text of the record calls up to 30% inactive
Target sequence (P14416 whole entry, looked up): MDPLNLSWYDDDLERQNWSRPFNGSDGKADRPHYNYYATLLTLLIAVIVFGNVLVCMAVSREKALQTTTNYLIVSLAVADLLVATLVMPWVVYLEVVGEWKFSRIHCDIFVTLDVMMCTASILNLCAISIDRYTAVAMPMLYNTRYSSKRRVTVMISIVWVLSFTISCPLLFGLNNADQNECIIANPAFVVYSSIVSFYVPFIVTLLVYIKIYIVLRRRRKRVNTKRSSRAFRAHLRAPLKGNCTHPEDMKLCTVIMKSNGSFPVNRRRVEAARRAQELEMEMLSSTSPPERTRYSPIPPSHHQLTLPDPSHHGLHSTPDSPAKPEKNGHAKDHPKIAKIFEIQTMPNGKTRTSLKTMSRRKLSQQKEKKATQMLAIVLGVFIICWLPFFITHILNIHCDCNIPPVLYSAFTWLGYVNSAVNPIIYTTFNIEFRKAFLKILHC
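DiscoveRx PathHunter D2 beta-arrestin cells (2,100/well) attached overnight, then compound-stimulated 90 min at 37 C in HBSS/10 mM HEPES/0.1% Tween-20 buffer; beta-galactosidase complementation read by luminescence after 1 h at ambient temperature. Dopamine 57 uM final (EC100) as control.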
TRPML1 inh: human mucolipin-1 channel inhibition; Q9GZU1; TRPML1-inducible cells, Ca2+ dye fluorescence, FDSS; stronger effect = lower value; inhibition of EC80 agonist-evoked calcium signal; activity change, negative = inhibition, % (no concentration beside the values); 0.02% of 390,000 active; in the data active means activity change below about -50%; inconclusive means about -30% to -50%; inactive means above about -30%;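 note: stimulus is agonist 54-4 at its EC80 concentration; % is set by controls: 0 for no effect and ±100 for the full control effect; compound concentration not given in the record; the text of the record puts the active cut at -80%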
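TRPML1-DL cells, Tet-induced overnight (~16 h, 37 °C) at 1,500 cells/well, were loaded with Ca8 no-wash dye plus quencher for 45-90 min at room temperature. Compounds were pinned during FDSS kinetic reading; agonist 54-4 at EC80 (4 uM final) then added.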
* = called active by the depositor; ? = inconclusive; . = no result given; & = joins results of further samples; [ ] = another dose, or the depositor's remark.

Below each compound: PINK1 modulator	CtBP-E1A inh	Six1-Eya2 blk	TRPML1 ag	D2 ag	TRPML1 inh
O=C(O)c1cc(-c2ccc(N3CCOCC3)cc2)nn1-c1ccccc1Cl
→ 1.8%	0	-11	0.0	-5.7	11
C[C@H](NS(=O)(=O)c1ccccc1F)C(=O)OCC(=O)N1CCc2ccccc21
→ -0.4%	-2	6	0.1	-0.9	12
CCCOc1ccc(CNC(=O)C(NS(=O)(=O)c2cccs2)C(C)C)cc1 (configuration not stated)
→ -0.4%	.	.	-0.4	.	8
Cc1ccccc1NC(=O)CSc1nnc(Cc2ccccc2)o1
→ -1.2%	-1	6	0.0	-0.6	-6
CCN(CC)C(=O)COc1ccc2c3c(c(=O)oc2c1)CCCC3
→ -0.7%	5	11	0.1	-0.9	-9
CCOC(=O)c1sc2nc(C)nc(NCCc3ccc(S(N)(=O)=O)cc3)c2c1C
→ ?	9	2	-0.3	9.4	5
Cc1cc(C)c(C(CC(=O)c2cccs2)C(C#N)C#N)c(C)c1 (configuration not stated)
→ ?	-2	-9	1.5	-5.6	2
N#CCCCn1c(=O)oc2ccccc21
→ -1.2%	0	-1	0.2	-2.8	-15
CCOc1ccc(-n2cc(-c3ccccc3)c3c(NCCc4ccccc4)ncnc32)cc1
→ 2.0%	.	.	0.0	.	3
CN(CC(=O)Nc1ccccc1Cl)CC(=O)N1CCc2ccccc21
→ 3.7%	10	-13	-0.7	-5.7	-9
COc1cc(NC(=O)C2CCCCC2)c2ncccc2c1
→ 0.3%	15	3	1.0	-5.0	-1
O=C(Cn1c(=O)n(CC2CCCO2)c(=O)c2ccccc21)c1ccc(Cl)c(Cl)c1 (configuration not stated)
→ 12%	-1	-2	12	0.8	-13
COc1ccc(SCc2noc(C(=O)NCC3CCCO3)c2C(=O)O)cc1 (configuration not stated)
→ 0.1%	-1	-1	-0.6	-2.4	0
O=C1CCc2cc(S(=O)(=O)Nc3ccccc3)cc3c2N1CCC3
→ 1.7%	-6	5	1.6	-2.0	-9
CCOC(=O)Nc1cc(NC(=O)OCC)c(C)nc1C
→ 1.4%	4	0	-0.2	1.1	-12

More compounds follow:
Below each compound: PINK1 modulator	CtBP-E1A inh	Six1-Eya2 blk	TRPML1 ag	D2 ag	TRPML1 inh
CC(C)N1CCN(C(=O)C2CCC(=O)N(CCc3cccc(F)c3)C2)CC1 (configuration not stated)
→ -1.6%	-2	4	-0.5	-0.7	-13
CN(CC(=O)N1CCCCC1)S(=O)(=O)c1cccc2nsnc12
→ -1.3%	-6	7	-0.3	-1.5	-16
CCOC(=O)C1CCN(C(=O)Cn2cc(C(=O)C3CC3)c3ccccc32)CC1
→ .	14	-1	-0.4	-0.8	3
COc1ccc(S(=O)(=O)N2CCCC(C(=O)NCc3ccco3)C2)cc1OC (configuration not stated)
→ -1.3%	-17	-2	-0.7	-1.2	-6
Cc1ccc(-n2ncc(-c3nn[nH]n3)c2N)cc1
→ 0.2%	6	-3	0.6	0.4	7
CCCN(C(=O)c1c(-c2ccccc2)noc1C)c1c(N)n(Cc2ccccc2)c(=O)[nH]c1=O
→ 0.5%	0	7	2.5	-0.4	-19
COc1ccc(OC)c(CCNc2ncnc3onc(-c4ccc(F)cc4)c23)c1
→ 1.3%	.	.	3.8	.	67
O=C(NC(=O)N1CCN(c2cccc(Cl)c2)CC1)c1ccccc1
→ -1.2%[38.3 µM]	0	-6	-0.4	0.9	1
O=C(NCCc1ccc(Cl)cc1)c1ccc(CS(=O)Cc2ccc(Cl)cc2)o1 (configuration not stated)
→ -1.0%	-4	0	-0.1	-3.4	3
COC(=O)[C@@H](NC(=O)/C=C/c1ccc(OC)cc1)C(C)C
→ -0.1%	-2	0	-0.5	-0.7	-5
COc1ccc(C(C)C)cc1S(=O)(=O)NCc1ccccn1
→ 4.5%[38.3 µM]	-7	-10	0.3	-4.2	-11
Cc1ccc(Nc2nc(N)nc(CN3CCN(Cc4ccccc4)CC3)n2)cc1Cl
→ -0.4%	.	0	0.1	-4.7	-62*
CCc1nnc(NC(=O)CSc2nnc(CCc3nc4ccccc4[nH]3)n2C)s1
→ 0.6%	10	9	-0.6	-0.4	-5
O=c1[nH]c(-c2ccc(Cl)cc2)cs1
→ 2.3%	-11	5	3.5	-8.5	7
CCOc1ccc(NC(=O)Nc2cc(C)ccc2F)cc1
→ 11%[38.3 µM]	-7	0	-0.6	-3.0	-11

(list continues)
Below each compound: PINK1 modulator	CtBP-E1A inh	Six1-Eya2 blk	TRPML1 ag	D2 ag	TRPML1 inh
COc1cc(NC(=O)CCl)ccc(=O)c1
→ -1.6%	-8	2	0.1	-1.0	-2
CSc1nnc(NC(=O)c2ccco2)s1
→ -0.8%	-3	-1	-0.1	0.4	1
CCOc1cc(C(=O)NCc2nc(-c3cccc(C)c3)no2)cc(OCC)c1OCC
→ 0.3%	.	.	0.9	.	-9
Nc1nonc1-n1nnc(C(=O)N/N=C/c2ccc(Cl)cc2Cl)c1CN1CCCCC1
→ 14%	2	1	-0.1	-0.6	9
CCn1cc(S(=O)(=O)c2ccc(C)cc2C)c(=O)c2cc(F)c(N3CCCC3)cc21
→ -1.1%	.	.	0.2	.	4
COc1ccc(C(OCC(O)CN(C)C2CCCCC2)c2ccc(OC)cc2)cc1 (configuration not stated)
→ -1.6%	-2	-11	0.4	-3.6	4
CCCCC(=O)NCc1ccc(F)cc1
→ 0.0%	0	3	0.8	-1.2	-7
O=C(Cn1nc(-c2ccccc2)c2ccccc2c1=O)Nc1ccccn1
→ -1.1%	4	-1	1.0	-4.0	29
COc1ccccc1Nc1nc(N)nc(CSc2ncccn2)n1
→ 0.4%	-1	-2	1.5	1.1	-10
COc1ccc2oc(-c3ccccc3)c(C(=O)N(C)C)c2c1
→ 0.0%	8	2	2.3	2.2	0
Cc1cc(C)cc(NC(=O)NCc2noc3ccccc23)c1
→ -0.6%	.	.	1.6	.	-14
COc1ccc(N2CCN(C(=O)CNS(=O)(=O)c3ccc(Br)s3)CC2)cc1
→ -0.2%&0.3%	-5	-15	4.9&1.1	0.0	-27&8
COc1ccc(S(=O)(=O)Cc2ccc(C(=O)N3CCN(c4cc(Cl)ccc4C)CC3)o2)cc1
→ 3.1%	-29	-2	6.5	-2.4	27
COCCCN1C(=O)c2ccc(C(=O)Nc3cccc(OC)c3)cc2C1=O
→ -0.6%	-1	-3	-0.9	-1.1	-8
Cc1nc(N2CCOCC2)c2c(C(=O)N3CCN(c4cccc(C)c4C)CC3)c(C)oc2n1
→ 23%	.	.	0.0	.	13

The list continues:
Below each compound: PINK1 modulator	CtBP-E1A inh	Six1-Eya2 blk	TRPML1 ag	D2 ag	TRPML1 inh
Cc1ccccc1C(=O)NC(=S)NC1CCSC1=O (configuration not stated)
→ 0.5%	8	4	0.1	-1.3	9
O=[N+]([O-])c1cc(CSC2=NCCN2)ccc1O
→ 0.1%	-25	-5	.	-4.2	.
O=C(COC(=O)C1=NNC(=O)CC1)NCCc1ccccc1
→ -0.1%	-17	6	1.3	-1.3	45
COc1ccc(CNC(=O)CCCN2C(=O)NC3(CCCC3)C2=O)cc1
→ 0.9%	.	3	-1.1	-0.8	8
O=C(NC1CCCCC1)C(c1ccc(F)cc1)N(Cc1ccco1)C(=O)CN1C(=O)c2ccccc2S1(=O)=O (configuration not stated)
→ 2.5%	5	7	-0.4	-4.4	22
C=CCN1C(=O)C(C(C)CC)NC1=S (configuration not stated)
→ 6.5%[38.3 µM]	-6	-6	0.3	-2.8	0
O=C(O)CS(=O)CC(=O)NCc1cccc(C(F)(F)F)c1 (configuration not stated)
→ 0.1%	5	5	0.0	2.0	4
CCOC(=O)Cn1c(-c2ccccc2)nc2ccccc2c1=O
→ -2.9%[38.3 µM]	22	26	1.7	-0.1	-2
CCOC(=O)c1cnc(SC)nc1Nc1cccc2ccccc12
→ 2.0%[38.3 µM]	1	3	0.0	-2.6	6
O=C(Nc1ccccc1-c1nc2ccccc2s1)C1=COCCO1
→ 2.4%	21	9	1.2	0.9	-4
Cc1c(C(=O)c2ccc(F)cc2F)c2ccccn2c1CCc1ccccn1
→ -0.1%	-4	-13	1.1	2.9	7
COc1ccc(-c2cc(C(F)(F)F)n3nc(N)nc3n2)cc1
→ 3.0%[38.3 µM]	0	-1	1.0	-4.5	-11
Cc1c(NC(=O)/C=C/c2cn(-c3ccccc3)nc2-c2ccccc2)c(=O)n(-c2ccccc2)n1C
→ 0.4%	-24	-15	1.2	-2.1	1
CC(Sc1nnc(Cc2cccs2)n1C)C(=O)Nc1ccc(C(N)=O)cc1 (configuration not stated)
→ 0.2%	0	2	-0.7	-0.8	14
CCN(CC(=O)Nc1sc2c(c1C#N)CCCC2)Cc1nc2ccccc2c(=O)[nH]1
→ 3.9%	29	7	-0.5	4.7	32

Copied from the listing (2 entries):
Below each compound: PINK1 modulator	CtBP-E1A inh	Six1-Eya2 blk	TRPML1 ag	D2 ag	TRPML1 inh
CC(Sc1nnc(Cc2cccs2)n1C)C(=O)Nc1ccc(C(N)=O)cc1 (configuration not stated)
→ 0.2%	0	2	-0.7	-0.8	14
CCN(CC(=O)Nc1sc2c(c1C#N)CCCC2)Cc1nc2ccccc2c(=O)[nH]1
→ 3.9%	29	7	-0.5	4.7	32

(cont.)
Below each compound: PINK1 modulator	CtBP-E1A inh	Six1-Eya2 blk	TRPML1 ag	D2 ag	TRPML1 inh
CC[C@H](C)[C@@H](C(=O)N1CCNCC1)n1cc([C@@H](N)CO)nn1
→ 0.2%	0	0	0.7	-1.8	31
Cc1ccc(N2CC(C(=O)Nc3cc(C)on3)CC2=O)c(C)c1 (configuration not stated)
→ 23%	3	-2	0.0	-1.3	-9
Cc1ccccc1-n1c(=O)cc(N2CC(C)OC(C)C2)[nH]c1=O (configuration not stated)
→ -3.5%[38.3 µM]	-7	1	0.5	-0.2	15
O=C(NNC(=O)c1nn(-c2ccc(F)cc2)ccc1=O)c1ccc(Cl)cc1
→ 9.4%	2	7	-0.7	-3.0	8
CCc1ccc(N(C(=O)c2csnn2)C(C(=O)NC2CCCCC2)c2ccncc2)cc1 (configuration not stated)
→ 2.1%	3	-3	3.2	0.3	18
COc1ccc(CNc2ccc3c(c2)nc(C)n3C)cc1
→ 2.9%	0	14	-1.1	-2.7	-6
COC(=O)c1ccc(=O)n(CC(=O)c2ccc(Cl)cc2)c1
→ 4.3%	7	4	-0.4	0.7	14
